Compound activity deposited in PubChem by Broad Institute.
rRNA inh HTS – reduced GFP signal of wild-type E. coli, primary screen, bacterial rRNA inhibitor project, GFP/RFP fluorescence, OD600, single point; E. coli WT GFP vs humanized-ribosome RFP mutants, 24 h; stronger effect = lower value; DMSO median 0, no signal -100; GFP signal change (wild-type ribosome), % (concentration not given with the values); 350,000 compounds, 1.6% hits; AID 720706, 2013;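 active means significant combined selectivity score with lowered wild-type GFP, culture density cut under 30%, mutant RFP and density less affected; inactive means any of these conditions unmet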; further: one replicate is shown; some compounds called inactive have numbers as strong as hits
FGF22 binding – binders of human FGF22 protein, primary screen, FGF22 synaptogenesis inhibitor project, biophysical, thermal shift, single point; recombinant FGF22 thermal shift, SYPRO orange fluorescence; percent of sucrose octasulfate shift, DMSO zero; Fibroblast growth factor 22 (Homo sapiens), Q9HCT0; 340,000 compounds, 1.5% hits; calls only at 9.99 µM; AID 651658, 2012;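 active means melting point raised past a set limit in the mean and every replicate; three in four hits are not shown here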
Target sequence (Q9HCT0 whole entry, looked up): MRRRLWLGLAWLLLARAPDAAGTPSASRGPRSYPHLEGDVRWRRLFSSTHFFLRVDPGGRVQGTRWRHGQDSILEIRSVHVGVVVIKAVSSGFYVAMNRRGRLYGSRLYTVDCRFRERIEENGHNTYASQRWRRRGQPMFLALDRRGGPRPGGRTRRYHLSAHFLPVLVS
rRNA inh HTS OD600 – second read-out of rRNA inh HTS, no call of its own (marks repeat the call); OD600 change, %; measured here: OD600 growth;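 optical density of the mix in the first replicate; 0 = DMSO median and -100 = no signal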
rRNA inh HTS RFP – recorded beside rRNA inh HTS, whose call it bears; RFP signal change, %; measured here: RFP humanized mutant strains;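 first replicate; 0 = DMSO median and -100 = no signal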
Starred values were filed as active, the others as inactive; i = inactive.

SMILES	rRNA inh HTS	rRNA inh HTS OD600	rRNA inh HTS RFP	FGF22 binding
CCCNC(=O)C[C@@H]1CC[C@H]2[C@H](COc3ccc(NC(=O)Nc4ccccc4)cc3C(=O)N2C)O1	0	-7	-1.3	i
CNC[C@H]1OCCCC[C@@H](C)Oc2ccc(NS(=O)(=O)c3cn(C)cn3)cc2C(=O)N([C@@H](C)CO)C[C@H]1C	3	3	-4.8	i
COCC(=O)Nc1ccc2c(c1)C(=O)N(C)[C@H]1CC[C@@H](CC(=O)NCc3ccccc3Cl)O[C@@H]1CO2	0	-1	0.6	i
Cc1cc(C(=O)Nc2ccc3c(c2)C(=O)N(C)[C@@H]2CC[C@@H](CC(=O)O)O[C@@H]2CO3)no1	2	-4	-2.4	i
Cc1cc(Nc2cc(F)c(F)c(F)c2)cc(=O)n1-c1cc(F)c(F)c(F)c1	10	16	0.7	i
C/C=C/c1ccc(C2[C@H]3CNC[C@@H]2N3S(=O)(=O)c2ccc(Cl)cc2)cc1 (some centres not stated)	-4	-4	4.9	i
COc1ccc(CN(C)C[C@H]2OCCCC[C@@H](C)Oc3ccc(NS(=O)(=O)c4c(C)noc4C)cc3C(=O)N([C@H](C)CO)C[C@H]2C)cc1	-1	0	1.8	i
COc1cccc(S(=O)(=O)Nc2ccc3c(c2)C(=O)N(C)[C@@H]2CC[C@H](CC(=O)O)O[C@@H]2CO3)c1	4	6	-3.6	i
O=C(N[C@H](Cc1ccccc1)C(=O)NCc1ccccn1)[C@H]1O[C@@H](n2ccc(=O)[nH]c2=O)[C@H](O)[C@@H]1O	5	17	0.5	i
CCCNC(=O)C[C@H]1CC[C@@H]2[C@@H](COc3ccc(NC(=O)Cc4cccs4)cc3C(=O)N2C)O1	0	-1	0.0	i
CCN(CCC(=O)Nc1cc(OC)ccc1OC)Cc1ccccc1	-8	4	13	i
CNC(=O)C[C@@H]1CC[C@H]2[C@H](COc3ccc(NC(=O)c4ccc(C(F)(F)F)cc4)cc3C(=O)N2C)O1	-1	-5	-4.9	i
C[C@@H]1ON(C)[C@H]2C[C@H]3c4[nH]c5cccc(-c6ccccc6)c5c4CCN3C[C@@H]12	-37	-46	0.2	i
CCNC(=O)C[C@@H]1CC[C@@H]2[C@H](COc3ccc(NC(=O)Nc4cccc(OC)c4)cc3C(=O)N2C)O1	-2	-3	0.1	i
O=C([C@@H]1[C@@H](CO)[C@@H]2Cn3c(ccc(-c4ccncc4)c3=O)[C@H]1N2CCC(F)(F)F)N1CCCCC1	1	7	-1.1	i

4 entries already listed, sorted by number of heavy atoms, rising:
SMILES	rRNA inh HTS	rRNA inh HTS OD600	rRNA inh HTS RFP	FGF22 binding
C[C@@H]1ON(C)[C@H]2C[C@H]3c4[nH]c5cccc(-c6ccccc6)c5c4CCN3C[C@@H]12	-37	-46	0.2	i
CCCNC(=O)C[C@H]1CC[C@@H]2[C@@H](COc3ccc(NC(=O)Cc4cccs4)cc3C(=O)N2C)O1	0	-1	0.0	i
O=C([C@@H]1[C@@H](CO)[C@@H]2Cn3c(ccc(-c4ccncc4)c3=O)[C@H]1N2CCC(F)(F)F)N1CCCCC1	1	7	-1.1	i
CNC[C@H]1OCCCC[C@@H](C)Oc2ccc(NS(=O)(=O)c3cn(C)cn3)cc2C(=O)N([C@@H](C)CO)C[C@H]1C	3	3	-4.8	i

Going on with the list.
SMILES	rRNA inh HTS	rRNA inh HTS OD600	rRNA inh HTS RFP	FGF22 binding
C[C@H]1CN([C@@H](C)CO)C(=O)c2cc(C#CC3(O)CCCC3)cnc2O[C@H]1CN(C)C(=O)Cc1cccnc1	5	14	-2.6	i
C[C@@H]1CCCCO[C@H](CN(C)CC2CC2)[C@H](C)CN([C@H](C)CO)C(=O)c2cc(NC(=O)Nc3ccc(C(F)(F)F)cc3)ccc2O1	4	3	1.6	i
Cc1ccc(S(=O)(=O)C[C@@H]2OC[C@H](C(C)C)N2S(=O)(=O)c2ccc(C)cc2)cc1	-5	-11	2.0	i
CCCN1CCCCC(NC(=O)c2cccs2)C1=O (configuration not stated)	14	13	1.9	i
Cc1ccc(S(=O)(=O)N2C3CC(c4ccccc4)N(S(=O)(=O)c4ccccc4Cl)CC3C(=O)C[C@H]2c2ccccc2)cc1 (some centres not stated)	-4	-3	-4.8	i
O=C(NCC[C@@H]1CC[C@H](NC(=O)C2CCCCC2)[C@@H](CO)O1)Nc1ccc(Cl)cc1	-35	-48	13	i
COc1ccc2c3c([nH]c2c1)[C@@H](CO)N(C(=O)Nc1ccc(F)cc1)CC31CN(S(C)(=O)=O)C1	-2	4	-1.8	i
COc1cccc(S(=O)(=O)Nc2ccc3c(c2)C(=O)N(C)[C@@H]2CC[C@@H](CC(=O)O)O[C@@H]2CO3)c1	4	9	-1.7	i
C[C@@H]1CN([C@@H](C)CO)C(=O)c2cc(C#C[C@@H](C)O)cnc2O[C@@H]1CN(C)C(=O)Nc1ccc(C(F)(F)F)cc1	5	2	2.7	i
COc1ccccc1S(=O)(=O)N1CC[C@@H]2[C@H]1c1cc(-c3ccc(C#N)cc3)ccc1N(C)[C@H]2CO	-3	2	-3.1	i
Cc1noc(C)c1NC(=O)Nc1ccc2c(c1)C(=O)N([C@@H](C)CO)C[C@@H](C)[C@H](CN(C)Cc1ccc(C(=O)O)cc1)OCCCC[C@@H](C)O2	3	5	-2.2	i
COC(=O)C[C@@H]1CC[C@H]2[C@@H](COc3ccc(NC(=O)Cc4cccs4)cc3C(=O)N2C)O1	0	-7	0.8	i
COCc1cc(N2CCN(C(=O)OC(C)(C)C)C[C@H]2C)ccc1N1CC[C@H](O)C1	11	5	5.7	i
Cc1noc(C)c1NC(=O)N(C)C[C@@H]1OCCCC[C@@H](C)Oc2ccc(NS(C)(=O)=O)cc2C(=O)N([C@H](C)CO)C[C@H]1C	2	22	-0.7	i
C[C@@H]1CN([C@H](C)CO)C(=O)c2cc(NC(=O)Cc3ccccc3)ccc2O[C@@H](C)CCCCO[C@@H]1CN(C)S(=O)(=O)c1ccc(F)cc1	2	5	-2.0	i
C/C=C/c1ccc(C2[C@H]3CNC[C@@H]2N3S(=O)(=O)c2c(C)noc2C)cc1 (some centres not stated)	4	5	0.9	i
C[C@@H]1CN([C@@H](C)CO)C(=O)c2cccc(NC(=O)Nc3ccc4c(c3)OCO4)c2O[C@@H]1CN(C)C(=O)Nc1ccc(F)cc1	4	7	-1.1	i
COc1ccc2c3c(n(C)c2c1)[C@@H](CO)N(CC1CC1)CC31CCN(C(=O)Nc2ccc(F)cc2F)CC1	-4	-9	-1.2	i
COC(=O)C[C@@H]1C[C@H]2c3cc(NS(=O)(=O)c4ccccc4)ccc3O[C@H]2[C@H](CO)O1	-1	-9	1.2	i
CNC12CCc3cc(OC)c(OC)c(c31)-c1cc3c(cc1C2)OCO3 (configuration not stated)	-8	-12	2.1	i
CCOC(=O)N(C)[C@H]1C[C@H]2c3[nH]c4ccccc4c3CCN2C(=O)[C@H]1[C@H](C)O	-7	-5	-3.3	i
COC(=O)C[C@@H]1CC[C@H]2[C@@H](COC[C@@H](O)CN2S(=O)(=O)c2ccccc2OC)O1	-3	-6	-0.6	i
Cc1ccc(S(=O)(=O)N2CC[C@@H]3[C@H](CO)Nc4ccc(-c5ccc(C#N)cc5)cc4[C@@H]32)cc1	-11	-4	2.8	i
CCCNC(=O)C[C@@H]1CC[C@@H]2[C@@H](COc3ccc(NC(=O)c4cc(F)cc(F)c4)cc3C(=O)N2C)O1	1	1	-2.4	i
C[C@@H]1CCCCO[C@@H](CN(C)Cc2ccc3c(c2)OCO3)[C@H](C)CN([C@@H](C)CO)C(=O)c2cc(NC(=O)Nc3cccc4ccccc34)ccc2O1	1	-9	4.6	i
Cc1ccc(S(=O)(=O)Nc2ccc3c(c2)CC(=O)N([C@H](C)CO)C[C@@H](C)[C@H](CN(C)S(=O)(=O)c2ccc(Cl)cc2)O3)cc1	-1	-5	-1.1	i
Cc1ccc(S(=O)(=O)Nc2ccc3c(c2)C(=O)N([C@@H](C)CO)C[C@@H](C)[C@H](CN(C)S(=O)(=O)c2ccc(Cl)cc2)OCCCC[C@@H](C)O3)cc1	1	-2	-0.7	i
CCNC(=O)C[C@H]1CC[C@@H]2[C@H](COC[C@H](O)CN2C(=O)c2ccccn2)O1	-1	11	0.2	i
Cc1noc(C)c1S(=O)(=O)Nc1ccc2c(c1)C(=O)N([C@H](C)CO)C[C@H](C)[C@H](CN(C)S(=O)(=O)c1cccs1)OCCCC[C@H](C)O2	-1	-2	1.2	i
C[C@@H]1CN([C@@H](C)CO)C(=O)c2cc(NS(=O)(=O)c3ccc(F)cc3)ccc2O[C@@H](C)CCCCO[C@H]1CN(C)C(=O)Cc1ccccc1	-7	-9	1.2	i

The closing 3 compounds of the section before lead into the next.
SMILES	rRNA inh HTS	rRNA inh HTS OD600	rRNA inh HTS RFP	FGF22 binding
CCNC(=O)C[C@H]1CC[C@@H]2[C@H](COC[C@H](O)CN2C(=O)c2ccccn2)O1	-1	11	0.2	i
Cc1noc(C)c1S(=O)(=O)Nc1ccc2c(c1)C(=O)N([C@H](C)CO)C[C@H](C)[C@H](CN(C)S(=O)(=O)c1cccs1)OCCCC[C@H](C)O2	-1	-2	1.2	i
C[C@@H]1CN([C@@H](C)CO)C(=O)c2cc(NS(=O)(=O)c3ccc(F)cc3)ccc2O[C@@H](C)CCCCO[C@H]1CN(C)C(=O)Cc1ccccc1	-7	-9	1.2	i
O=C(c1cccnc1)N1CCCCN2[C@H](C1)[C@@H](c1ccc(C#Cc3cccnc3)cc1)[C@@H]2CO	-7	-10	-2.2	i
CN(C)C(=O)c1cccc(-c2ccc3c(c2)[C@H]2[C@H](CCN2C(=O)Nc2cccc(F)c2)[C@@H](CO)N3C)c1	1	-22	0.1	i
COc1ccc2cc(C3CC=C(CO)CN3S(=O)(=O)c3ccccc3[N+](=O)[O-])n(C(=O)OC(C)(C)C)c2c1 (configuration not stated)	0	-16	0.3	i
Cc1ccccc1C(=O)N[C@H](C(=O)N1CCC[C@H]1C(=O)NC1CCCC1)c1ccccc1	10	2	0.7	i
CCCNC(=O)C[C@@H]1C[C@H]2c3cc(NS(=O)(=O)c4ccccc4)ccc3O[C@H]2[C@@H](CO)O1	-5	-3	2.0	i
Nc1ccn([C@@H]2O[C@H](C(=O)N[C@H](Cc3ccccc3)C(=O)N3CCN(CCO)CC3)[C@@H](O)[C@H]2O)c(=O)n1	13	11	1.7	i
CC1(C(=O)Nc2ccc3c(c2)OCCO3)CN(S(C)(=O)=O)CC(=O)N1CCCN1CCOCC1 (configuration not stated)	14	7	1.0	i
COc1cccc(NC(=O)C[C@@H]2CC[C@@H]3[C@@H](COc4ccc(NS(=O)(=O)c5cccc(F)c5)cc4C(=O)N3C)O2)c1	-5	-10	3.3	i
CC(C)NC(=O)N(C)C[C@@H]1Oc2c(NC(=O)Nc3ccc4c(c3)OCO4)cccc2C(=O)N([C@@H](C)CO)C[C@@H]1C	-3	4	0.1	i
CC(=O)C1=C(C)N(Cc2ccc(Cl)cc2)C(=S)NC1c1ccccc1 (configuration not stated)	-15	-26	-3.1	i
CC(C)[C@H](NC(=O)c1ccc(Cl)c(Cl)c1)C(=O)N1CCC[C@H]1C(=O)NCc1ccccc1	-28	-37	-0.3	i
COCC(=O)N1CC[C@@H]2[C@@H](CO)Nc3ccc(-c4ccc(C#N)cc4)cc3[C@@H]21	0	5	2.4	i
COC1=CC(=O)OC(c2cccc(OC)c2)C1 (configuration not stated)	6	9	-0.2	i
COc1ccc(C2CC(=O)C(c3ccc(C#N)cc3)=CN2Cc2ccccc2)cc1 (configuration not stated)	4	9	6.3	i
CNC(=O)C[C@H]1CC[C@H]2[C@H](COc3ccc(NC(=O)c4cscn4)cc3C(=O)N2C)O1	6	1	-0.8	i
CCC(=O)N1C[C@@H](C)[C@@H](OC)CN(C)C(=O)c2cc(NC(=O)Nc3ccccc3)ccc2OC[C@H]1C	-2	-7	-0.3	i
Cc1noc(C)c1S(=O)(=O)N(C)C[C@H]1OCCCC[C@H](C)Oc2ccc(NC(=O)Nc3ccc4c(c3)OCO4)cc2C(=O)N([C@@H](C)CO)C[C@@H]1C	-2	5	-2.3	i
Cn1cnc(S(=O)(=O)N2C[C@H](O)COC[C@@H]3O[C@H](CC(=O)NC4CCC4)CC[C@H]32)c1	-2	-2	-2.1	i
Cc1ccc(S(=O)(=O)N(C)C[C@H]2Oc3ccc(NC(=O)CCC(F)(F)F)cc3C(=O)N([C@H](C)CO)C[C@H]2C)cc1	2	1	1.0	i
COc1ccc(CN(C)C[C@@H]2OCCCC[C@H](C)Oc3ccc(NS(=O)(=O)c4ccc(OC)cc4)cc3C(=O)N([C@@H](C)CO)C[C@@H]2C)cc1	1	-4	1.1	i
C[C@@H]1CCCCO[C@@H](CN(C)Cc2ccc(C(F)(F)F)cc2)[C@@H](C)CN([C@H](C)CO)C(=O)c2cc(NC(=O)Nc3ccc(C(F)(F)F)cc3)ccc2O1	0	3	-1.8	i
Cc1noc(C)c1S(=O)(=O)N(C)C[C@@H]1OCCCC[C@H](C)Oc2ccc(NS(=O)(=O)c3ccc(F)cc3)cc2C(=O)N([C@H](C)CO)C[C@@H]1C	-4	-4	2.8	i
O=C(C[C@H]1CC[C@@H]2[C@H](COC[C@@H](O)CN2S(=O)(=O)c2cccc(Cl)c2)O1)N1CCCCC1	0	11	-5.6	i

Only part of the results is shown (hit frequency here may not be typical).
